Assay outcomes deposited in PubChem BioAssay by National Center for Advancing Translational Sciences (NCATS).
VDR inhibitor: blocks the human vitamin D receptor. P11473. VDR-SRC2-3 peptide fluorescence polarization, 2 h. Potency, µM, without a hit: max response, negative = inhibition, usual class: inhibitors. 0.93% of 400,000 active. AID 504847; active = well fitted inhibition curve with a large enough effect; inconclusive = small, poorly fitted or top-dose-only effect, or another doubt; inactive = no such curve, though single readings can be large or run the other way; note: series mostly up to about 120 µM
Target sequence (P11473 whole entry, looked up): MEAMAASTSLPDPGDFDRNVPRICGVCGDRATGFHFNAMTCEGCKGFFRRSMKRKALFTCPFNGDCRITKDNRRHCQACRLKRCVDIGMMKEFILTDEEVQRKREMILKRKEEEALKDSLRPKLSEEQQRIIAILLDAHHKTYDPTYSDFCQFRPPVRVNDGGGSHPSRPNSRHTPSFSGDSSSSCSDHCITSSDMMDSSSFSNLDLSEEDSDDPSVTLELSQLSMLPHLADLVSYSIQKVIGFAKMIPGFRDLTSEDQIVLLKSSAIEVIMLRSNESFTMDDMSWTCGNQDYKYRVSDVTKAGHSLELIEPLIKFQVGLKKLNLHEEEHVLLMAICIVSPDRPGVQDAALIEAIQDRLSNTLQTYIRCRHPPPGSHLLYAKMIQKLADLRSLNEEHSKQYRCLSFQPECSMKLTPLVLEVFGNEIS
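Fluorescence polarization assay measuring small-molecule disruption of VDR binding to the coregulator peptide SRC2-3. Compounds were pin-transferred (23 nl) into the reagent mix and incubated 2 h at room temperature before reading.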
* hit, by the source's call; ? = inconclusive; & = joins results of further samples. % is set by controls: 0 for no effect and ±100 for the full control effect; potency is the fitted concentration of half-maximal effect.

SMILES	VDR inhibitor
Cc1nnc(N2CCN(c3ccccc3F)CC2)c2c1nnn2Cc1ccc(F)cc1	12%
O=C(NCc1ccc(Cl)cc1)C(=O)NCC1OCCN1S(=O)(=O)c1cccs1 (stereo not drawn)	-21%
Cc1noc(C)c1C(=O)OCC(=O)c1c[nH]c2ccccc12	-4%
COc1ccc(C)cc1NC(=O)C(=O)N1CCCC1	1%
CCCCC(=O)OC1=C(C(=O)c2ccccc2)N(CC)S(=O)(=O)c2ccccc21	-18%
CCc1ccc(NC(=O)N2CC(C)Oc3ccc(C)cc32)cc1 (stereo not drawn)	3%
COc1ccc(CCN2CC(C(=O)NCc3ccc(F)cc3)CC2=O)cc1OC (stereo not drawn)	6%
C/C(=N\NC(=O)Cn1cnc2ccccc21)c1cccs1	14%
Cc1cccc(C(=O)c2c[nH]cc2-c2ccccc2)c1	-6%
COc1ccc(C)cc1NC(=O)c1nc2nc(C)cc(C)n2n1	-1%
CCCCC(=O)N1CC(=O)Nc2ccc(F)cc2C1c1ccc(F)cc1 (stereo not drawn)	-19%&-16%
COc1ccc2c(c1)sc(=NC(=O)CS(=O)(=O)c1ccc(F)cc1)n2C	-1%
COc1cc(OC)c(N(C)S(=O)(=O)c2cccc(C(=O)OCc3c(C)noc3C)c2)cc1Cl	-6%
COc1cc(CNCCc2ccccc2)ccc1OCC(N)=O	-1%
CC(=O)Nc1ccc(NC(=O)CC(c2ccccc2)c2ccccc2)cc1	-9%
CN1CCCC(OC(=O)CCCCC(=O)OC2CCCN(C)C2)C1 (stereo not drawn)	-19%
COc1cc(OC)cc(C(=O)N2CCC(N3CCN(c4ccccc4)CC3)CC2)c1	-23%
O=C(CN1C2CCCC1CC(NC(=O)c1ccccc1)C2)Nc1ccccc1 (stereo not drawn)	-10%
CCCSc1nnc(NC(=O)c2cc(=O)c3ccccc3o2)s1	3%
CCc1nc2ccccc2c(=O)n1/N=C/c1ccc(Cl)cc1	0%
CN(C)C(CN1C(=O)C2CC=CCC2C1=O)c1cn(C)c2ccccc12 (stereo not drawn)	14%
CC(C)(C)c1ccc(C(=O)n2cnc3ccccc32)cc1	-21%
CCOC(=O)C1C(=O)NC(SCC(=O)OC)=C(C#N)C1c1ccccc1OCC (stereo not drawn)	2%
Cc1ccc(C(=O)Nc2ccccc2N2CCOCC2)cc1S(=O)(=O)N1CCOCC1	1%
Cc1ccc(C(=O)NNC(=O)C2CCCN(c3ncccn3)C2)cc1 (stereo not drawn)	13%
COc1ccc(-c2c(C)cc3oc(=O)cc(-c4ccccc4)c3c2C)cc1OC	?
CC(C)c1ccccc1NC(=O)COC(=O)Cc1ccsc1	-3%
CCOc1ccccc1NC(=O)CSc1nnc(Cn2c(=O)sc3ccccc32)n1C	-1%
Cc1ccc(-c2cc(C(=O)OCC(=O)Nc3ncc(C(F)(F)F)cc3Cl)c3ccccc3n2)cc1	-2%
O=C(O)CSCc1cn2cc(Cl)ccc2n1	4%
O=C(Cc1ccccc1)c1ccc2c(c1)OCCO2	-11%
COC(=O)c1ccc(CS(=O)(=O)c2ccc(C)cc2)o1	-6%
O=c1cc(-c2ccc([N+](=O)[O-])cc2)c2ccc(O)cc2o1	-13%
OC(COc1ccc(CN2CCSCC2)cc1)CN1CCCCC1 (stereo not drawn)	-10%
CCOc1cc(S(=O)(=O)N(Cc2ccccc2)Cc2ccccc2)c(OCC)cc1-n1cnnn1	-18%
COC(=O)CC1Oc2ccc(C)cc2NC1=O (stereo not drawn)	0%

Ordered by heavy-atom count (largest number first): part of the list above
SMILES	VDR inhibitor
CCOc1cc(S(=O)(=O)N(Cc2ccccc2)Cc2ccccc2)c(OCC)cc1-n1cnnn1	-18%
OC(COc1ccc(CN2CCSCC2)cc1)CN1CCCCC1 (stereo not drawn)	-10%
O=c1cc(-c2ccc([N+](=O)[O-])cc2)c2ccc(O)cc2o1	-13%
O=C(Cc1ccccc1)c1ccc2c(c1)OCCO2	-11%
COC(=O)CC1Oc2ccc(C)cc2NC1=O (stereo not drawn)	0%
O=C(O)CSCc1cn2cc(Cl)ccc2n1	4%

Further entries:
SMILES	VDR inhibitor
O=C(C1CCCN1S(=O)(=O)c1cccc2cccnc12)N1CCc2ccccc2C1 (stereo not drawn)	?
Cc1csc(Sc2ccc(S(=O)(=O)N3CCCC3)cn2)n1	17%
CC(=O)c1c(OC(=O)c2cccc(Cl)c2)c2ccccc2n1C	-19%
COc1ccc(Cl)cc1NC(=O)CSc1cn(CC(=O)N2CCCCCC2)c2ccccc12	6%
Cc1cc(C)nc(-n2nc(C)cc2NC(=O)c2ccc(F)cc2F)n1	-5%
OC(CCCCN1CCCCC1)c1ccccc1 (stereo not drawn)	-9%
Oc1ccc2oc3c(c2c1C=NCc1ccncc1)CCCC3	9%
CCOc1ccccc1NC(=O)CSc1nc2cc(O)ccc2c(=O)n1-c1ccc(OC)c(OC)c1	17%
O=C(NCC1CCCO1)c1nn2c(C(F)(F)F)cc(-c3ccc(Br)o3)nc2c1Br (stereo not drawn)	-6%
CCOC(=O)c1c(C)[nH]c(C)c1C(=O)CSc1nnc(-c2ccncc2)n1C	-8%
COc1ccc(C(C)=O)cc1COC(=O)c1cccc(N(C)C)c1	-14%
Cn1c(Cn2nnc3ccccc32)nnc1SCC(=O)N1CCc2ccccc21	9%
O=C(NCc1cccc(Cl)c1)C1CCC(=O)N(CCN2CCOCC2)C1 (stereo not drawn)	6%
COc1ccccc1OC(C)C(=O)NCC1(N2CCOCC2)CCCCC1 (stereo not drawn)	-8%
COc1cccc(N2CCN(S(=O)(=O)c3ccc4nc(-c5ccccc5)[nH]c4c3)CC2)c1	12%
CCOC(=O)[C@H]1[C@H]2COc3ccccc3[C@@H]2N2C(=O)c3cc(OC)ccc3NC(=O)[C@@]12C	-2%
CC(C)Oc1ccccc1C(=O)NC(CO)C(=O)O (stereo not drawn)	-4%
C/C(Cc1ccccc1)=N\NC(=O)c1cc(C(C)(C)C)[nH]n1	9%
Oc1cc2ccccc2cc1-c1n[nH]c(=S)n1Cc1ccco1	-16%
S=C(NC1CCCCC1)N1CCc2[nH]c3ccccc3c2C1	9%
CC(C)Cc1nn2cc(-c3cccc(Br)c3)nc2s1	0%
COc1ccccc1N1CCN(C(=O)c2ccc3c(c2)CCN3S(=O)(=O)c2ccccc2)CC1	8%&16%
CCOC(=O)c1[nH]c2ccccc2c1NC(=O)c1ccc(S(=O)(=O)N2CCCCC2)cc1	-5%
COC(=O)CCSc1nc2sc3c(c2c(=O)n1Cc1ccccc1)CCC(C(C)(C)C)C3 (stereo not drawn)	3%
Cc1cc(-c2ccccc2)n(-c2ccc(C(=O)NC(C)C)cc2)n1	-12%
CSc1nc(N(C)C)nc(N(C)C#N)n1	-14%
N#Cc1cccc(NC(=O)c2cc3c(s2)-c2ccc(Cl)cc2SC3)c1	5%
NC(=O)C1(N2CCCCC2)CCN(S(=O)(=O)c2cc(Cl)ccc2Cl)CC1	-21%
CCN(CC)CCN(C(=O)c1ccc2c(c1)CCCC2)c1nc2ccc(F)cc2s1	9%
Cc1cnc(NC(=O)Nc2ccc(OCc3ccccc3)cc2)c(Br)c1	-22%
NS(=O)(=O)c1ccc(CCNS(=O)(=O)c2ccccc2)cc1	6%
Cc1cc(S(=O)(=O)N2CCN(c3ccccn3)CC2)c(C)cc1Cl	8%
Cc1cc(C)cc(C(=O)NCC(=O)N2CCN(c3cccc(Cl)c3)CC2)c1	5%
Cn1nnnc1SCC(=O)N1CCc2ccccc21	12%
COCC(=O)N(Cc1cc2cc(C)ccc2[nH]c1=O)c1ccc(C)c(C)c1	?
COc1ccc(-c2nn(-c3ccc(F)cc3)c3c2cnc2cc4c(cc23)OCO4)cc1	13%

In the list so far, 10 have an aryl thioether with sulfur outside any ring.
SMILES	VDR inhibitor
CCCSc1nnc(NC(=O)c2cc(=O)c3ccccc3o2)s1	3%
CCOc1ccccc1NC(=O)CSc1nnc(Cn2c(=O)sc3ccccc32)n1C	-1%
Cc1csc(Sc2ccc(S(=O)(=O)N3CCCC3)cn2)n1	17%
COc1ccc(Cl)cc1NC(=O)CSc1cn(CC(=O)N2CCCCCC2)c2ccccc12	6%
CCOc1ccccc1NC(=O)CSc1nc2cc(O)ccc2c(=O)n1-c1ccc(OC)c(OC)c1	17%
CCOC(=O)c1c(C)[nH]c(C)c1C(=O)CSc1nnc(-c2ccncc2)n1C	-8%
Cn1c(Cn2nnc3ccccc32)nnc1SCC(=O)N1CCc2ccccc21	9%
COC(=O)CCSc1nc2sc3c(c2c(=O)n1Cc1ccccc1)CCC(C(C)(C)C)C3 (stereo not drawn)	3%
CSc1nc(N(C)C)nc(N(C)C#N)n1	-14%
Cn1nnnc1SCC(=O)N1CCc2ccccc21	12%

Next section
SMILES	VDR inhibitor
CC1(C)NC(=O)N(CC(=O)OCC(=O)Nc2sccc2C#N)C1=O	9%
O=C1CC(c2ccccc2)=Nc2ccccc2N1Cc1ccccc1	1%
CC(C)(O)C#Cc1ccc(CN2CCN(Cc3ccccc3)C(CCO)C2)cc1 (stereo not drawn)	12%
COc1ccccc1Cc1nc2ccccc2nc1SCC(=O)N1CCC(C)CC1	6%
CC(C)(C)OC(=O)COc1ccc(/C=N/NC(=O)CN2CCCCC2)cc1	20%
CCN(C(=O)c1cn(CC)c(=O)c2cc(OC)c(OC)cc12)c1ccc(C)c(C)c1	7%
CN(C)c1ccc(CN(C(=O)/C=C/c2ccccc2Cl)C2CCS(=O)(=O)C2)cc1 (stereo not drawn)	17%
C#CCOCCOCCOCCNc1nc(N2CCN(C(=O)[C@H](Cc3ccc(O)cc3)n3cc([C@@H](N)C(C)CC)nn3)CC2)nc(N2CCN(C(=O)[C@H](Cc3cc4ccccc4[nH]3)n3cc([C@@H](N)C(C)CC)nn3)CC2)n1 (stereo partly drawn)	-3%
O=C(NCCc1ccc(Cl)cc1)c1ccc(CNc2c(N3CCOCC3)c(=O)c2=O)cc1	-8%
COc1ccc(CN2C(=O)c3ccccc3C2C(=O)NCC2CCCO2)c(OC)c1 (stereo not drawn)	20%
CCOC(=O)C1CCN(c2nc(-c3ccccc3)nc3c2oc2ccccc23)CC1	3%
Cc1c(C(=O)Nc2ccc3c(c2)OCCO3)sc2ncnc(N3CCCCC3C)c12 (stereo not drawn)	8%
CCCC(=O)NC(=S)Nc1cccc2c(O)cccc12	-13%
O=C1NC(c2ccc(O)cc2)Nc2ccccc21 (stereo not drawn)	-15%
Cc1ccc(S(=O)(=O)Nc2cccnc2)cc1	?
CC(C)(C)n1nnnc1C(c1ccccc1F)N1CCN(C2CCCC2)CC1 (stereo not drawn)	10%
CCOc1ccc2nc(C)cc(Nc3ccc4c(c3)OCCO4)c2c1	12%
S=C(Nc1ccc(Oc2ccc(NC(=S)NC3CCCCC3)cc2)cc1)NC1CCCCC1	-3%
Cc1ccc(C(=O)NCC(=O)NCCCc2ccccc2)s1	-7%
C=CCOc1ccc2c(CC)cc(=O)oc2c1C	6%
C=CCc1ccccc1OCC(O)CN1CCOCC1 (stereo not drawn)	-2%
Cc1ccc(C2/C(=C(/O)c3cnn(-c4ccccc4)c3C)C(=O)C(=O)N2CCN2CCOCC2)o1 (stereo not drawn)	4%
CC(=O)NC(CC(=O)NC1CCCc2ccccc21)c1ccccc1 (stereo not drawn)	-7%
C/C(=N\NC(=O)Cn1ccc(C(F)(F)F)n1)c1ccc2c(c1)OCO2	-9%
CCC(=O)N1CCN(c2ccc(NC(=O)c3ccc(N4CCOCC4)c([N+](=O)[O-])c3)cc2)CC1	13%
Cc1cc(S(=O)(=O)NCC(c2ccc3c(c2)OCO3)N2CCOCC2)ccc1F (stereo not drawn)	-2%
Cc1ccc(S(=O)(=O)CCC(=O)OCC(=O)Nc2cc(S(=O)(=O)N3CCOCC3)ccc2Cl)cc1	-18%
N=c1c2c3c(sc2ncn1N)CCC3	3%
CCNC(=S)N(CCN(CC)CC)Cc1cc2cc3c(cc2[nH]c1=O)OCCO3	10%
CC(NC(=O)CN(C)CC(=O)Nc1ccc(F)c(F)c1F)c1ccccc1 (stereo not drawn)	7%
COc1cc(OC)c(OC)cc1CN1CCCC(C(=O)c2sccc2C)C1 (stereo not drawn)	2%
COc1ccc(S(=O)(=O)Nc2ccc(F)c(F)c2)cc1C(=O)N1CCOCC1	-4%
COc1cc(C2/C(=C(\O)c3ccc4c(c3)OCCO4)C(=O)C(=O)N2Cc2ccco2)cc(OC)c1OC (stereo not drawn)	24%
Cc1ccc(O)c(NC(=O)CCCC(=O)O)c1	5%
CCC(CCNC(=O)c1ccccc1)(CCNC(=O)c1ccccc1)[N+](=O)[O-]	-8%
Cc1ccc(-c2nnc(SCC(=O)N/N=C/c3c(C)nn(-c4ccccc4)c3C)n2-c2ccc(C)cc2)cc1	-6%
Cc1cc(C)cc(NC(=O)CSc2nc3c(c(=O)n2C)SC(C)C3)c1 (stereo not drawn)	-19%
Cc1ccccc1C(=O)N(Cc1nc(-c2ccc(Cl)cc2)no1)C(C)C	20%
CCC(C)NC(=O)c1ccc(CSCc2cccc(F)c2)o1 (stereo not drawn)	9%
Cc1ccccc1-c1nc2ccccc2c(=O)n1C1CCS(=O)(=O)C1 (stereo not drawn)	-16%
Brc1ccc(OCCCOc2cccc3cccnc23)cc1	15%
CC(C)c1onc(C(=O)N2CCCCCC2)c1[N+](=O)[O-]	-1%
Cc1cc(-n2c(=S)sc3c(=O)n(-c4ccc(F)cc4)c(SCC(=O)O)nc32)ccc1Cl	0%
COc1cc(OC)cc(-c2nnc(SCC(=O)N3CCCc4ccccc43)o2)c1	-4%
CC(=O)N1CCC2(CC1)CCN(C(=O)Nc1cccc(F)c1)CC2	?
COc1cc2[nH]c(=O)n(CCCCCC(=O)N3CCN(c4ccc(Cl)cc4)CC3)c(=O)c2cc1OC	13%
CCCc1ccc(-c2cc(C(=O)NCCc3ccc(S(N)(=O)=O)cc3)c3ccccc3n2)cc1	-6%
COc1cc(S(=O)(=O)n2nc(C)cc2C)c(OC)cc1Cl	13%
Cn1cc(SCC(=O)Nc2ccc3c(c2)OCCO3)c2ccccc21	12%

Only part of the results is shown (hit frequency here may not be typical).
